Source: PubChem BioAssay
Mtb MbtI inh: blocks the Mycobacterium tuberculosis siderophore enzyme MbtI. purified MbtI enzyme, fluorescence intensity read-out. inhibition, %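 (about 17 µg/mL by stock and volumes)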. actives 0.89% (n = 100,000);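 active = above 50% in both replicates, above 80% if mildly self-fluorescent; inactive = the rest, strongly fluorescent compounds included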;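 note: 0% = mean of negative and 100% = mean of positive controls; one replicate is shown; some compounds called inactive have numbers as strong as hits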
Target sequence (P9WFX0 whole entry, looked up): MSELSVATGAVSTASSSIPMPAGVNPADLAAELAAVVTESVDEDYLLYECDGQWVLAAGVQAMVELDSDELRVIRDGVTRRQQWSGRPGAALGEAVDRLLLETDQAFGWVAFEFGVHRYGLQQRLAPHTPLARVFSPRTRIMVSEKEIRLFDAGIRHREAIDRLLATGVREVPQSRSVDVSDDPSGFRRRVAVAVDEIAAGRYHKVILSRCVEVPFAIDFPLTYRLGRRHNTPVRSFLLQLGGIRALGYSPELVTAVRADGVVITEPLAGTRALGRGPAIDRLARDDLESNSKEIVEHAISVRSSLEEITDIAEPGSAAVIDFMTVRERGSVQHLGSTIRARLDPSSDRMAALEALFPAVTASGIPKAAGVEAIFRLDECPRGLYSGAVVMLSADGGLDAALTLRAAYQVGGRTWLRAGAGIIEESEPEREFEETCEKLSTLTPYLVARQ
MenB inh: inhibitors of Mycobacterium tuberculosis MenB enzyme; MenB enzyme assay, absorbance read-out; some hits fall short of the stated cut; inhibition, %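 (about 12 µg/mL by stock and volumes)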; actives 0.43% (n = 100,000);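 active = mean of two replicates above 30%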;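 note: 0% = no compound and 100% = wells with inactive enzyme; the first replicate is given; strong numbers were not always called active; inactives centre near -10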
Polio RdRp inh: inhibitors of poliovirus RNA polymerase binding and polymerization; poliovirus polymerase elongation, fluorescence polarization; stronger effect = lower value; % elongation, % (compound at 16.7 µg/mL); actives 0.66% (n = 150,000); AID 588519; in the data active = % elongation below about 90%; note: some results filed as inactive read as strong as hits
Target sequence (P03300 1749-2209 limits assumed): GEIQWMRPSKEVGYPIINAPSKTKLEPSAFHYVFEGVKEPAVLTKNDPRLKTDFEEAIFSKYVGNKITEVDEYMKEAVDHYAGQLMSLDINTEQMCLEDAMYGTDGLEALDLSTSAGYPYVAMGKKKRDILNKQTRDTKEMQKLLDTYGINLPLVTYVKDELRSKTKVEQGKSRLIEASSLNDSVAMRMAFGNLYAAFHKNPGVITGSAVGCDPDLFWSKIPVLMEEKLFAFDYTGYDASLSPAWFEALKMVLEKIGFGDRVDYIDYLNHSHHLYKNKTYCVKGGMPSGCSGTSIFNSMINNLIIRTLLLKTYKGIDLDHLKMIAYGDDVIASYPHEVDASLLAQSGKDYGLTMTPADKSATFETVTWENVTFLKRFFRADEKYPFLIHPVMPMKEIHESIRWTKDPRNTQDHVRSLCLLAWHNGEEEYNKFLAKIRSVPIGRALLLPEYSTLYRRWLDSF
Polio RdRp inh intensity: further read-out of Polio RdRp inh, marked with its call; % elongation; measured here: total intensity read-out; formula for this scale not given here;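 total fluorescence in place of polarization; lower means less elongation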
Active calls of the source: *; nt = no result given; & = joins results of further samples.

1) CCOc1cc(/C=C2\C(=O)Nc3ccc(Br)cc32)ccc1OCC(=O)O
2) N#CC1=C(N)c2ccccc2CC12CCCCC2
3) CCCNC(=O)c1ccc(N2C(=O)c3ccccc3C2=O)cc1
4) CN(CCc1ccccn1)C(=O)CC1(CC(=O)O)CCCC1
5) c1ccc(-c2cc(NCC3CC3)n3cnnc3n2)cc1
6) O=C1C2C3C=CC(C3)C2C(=O)N1CCOCc1ccccc1 (stereo unspecified)
7) CCOC(=O)c1ccc(-c2ccc(/C=C3/C(=O)ON=C3C)o2)cc1
8) CCC(C)NC(=O)CSc1ccc(Cl)cc1 (stereo unspecified)
assay / entry	1	2	3	4	5	6	7	8
Mtb MbtI inh	-7	-13	3	-15	-3	3	6	nt
MenB inh	-22	5	-297	nt	-5	-10	-4	8
Polio RdRp inh	102	99	100	101	103	97	105	99
Polio RdRp inh intensity	108	102	103	97	101	103	102	102

9) CC1CC1C(=O)OCC(=O)Nc1ccccc1C(F)(F)F (stereo unspecified)
10) CC12CN(C(=O)c3cccs3)CC(C)(CN(C(=O)c3cccs3)C1)C2=O
11) Clc1ccc(C2=CC(c3cccs3)n3c(nc4ccccc43)N2)cc1 (stereo unspecified)
12) Cc1sc(-n2cccc2)c(C#N)c1C
13) O=C(NC1CCc2ccccc21)c1cn(-c2ccc(F)cc2)nn1 (stereo unspecified)
14) CSc1ccc(CN(C)CC(=O)NC2(C#N)CCCC2)cc1
15) CCN(CC(=O)Nc1ccccc1OC)C(=O)c1ccc(-n2cccn2)cc1
16) COc1ccc2c(c1)NC(c1cc(Cl)cc(Cl)c1O)c1cccn1-2 (stereo unspecified)
assay / entry	9	10	11	12	13	14	15	16
Mtb MbtI inh	-5	-9	17	0	-12	11	2	6
MenB inh	nt	5	-47	6	1	-3	-7	-12
Polio RdRp inh	102	102	102	103	103	99	109	103
Polio RdRp inh intensity	96	102	108	101	103	93	110	100

Record cards, from the list above. Order of values: Mtb MbtI inh	MenB inh	Polio RdRp inh	Polio RdRp inh intensity
`COc1ccc2c(c1)NC(c1cc(Cl)cc(Cl)c1O)c1cccn1-2` (stereo unspecified) is listed as 6	-12	103	100
`CN(CCc1ccccn1)C(=O)CC1(CC(=O)O)CCCC1` is listed as -15	nt	101	97
`O=C1C2C3C=CC(C3)C2C(=O)N1CCOCc1ccccc1` (stereo unspecified) is listed as 3	-10	97	103
`Clc1ccc(C2=CC(c3cccs3)n3c(nc4ccccc43)N2)cc1` (stereo unspecified) is listed as 17	-47	102	108
`O=C(NC1CCc2ccccc21)c1cn(-c2ccc(F)cc2)nn1` (stereo unspecified) is listed as -12	1	103	103

Other records follow:
17) CCNc1nc(NCC)n2c(=S)n(CN3CCOCC3)nc2n1
18) O=C(CNc1cccc(C(F)(F)F)c1)NN1C(=O)NC2(CCCCC2)C1=O
19) COc1cc(/C=C/C(=O)N2CCc3ccccc3C2)cc(OC)c1OC
20) CCC(=O)N1c2ccccc2NC2=C(C(=O)CC(C)(C)C2)C1c1ccccn1 (stereo unspecified)
21) CN(C)c1ccc(Nc2nc(-c3cccnc3)nc3ccccc23)cc1
22) O=C(O)COc1ccc2oc(=O)c3c(c2c1)CCC3
23) CCc1cc2c3c([nH]c2cc1S(=O)(=O)N1CCCCC1)CCCC3=O
24) CC1(C)CC(=O)C=C(NCC2CCCO2)C1 (stereo unspecified)
assay / entry	17	18	19	20	21	22	23	24
Mtb MbtI inh	-5	-7	-29	16	-10	104	-19	10
MenB inh	-23	-6	-6	-22	-19	9	-7	nt
Polio RdRp inh	101	103	101	103	100	103	100	102
Polio RdRp inh intensity	100	106	103	103	102	105	103	106

25) CCn1c2ccccc2c2cc(NC(=O)CCC3CCCCC3)ccc21
26) CCc1ccc(C(=O)COC(=O)c2nc(-c3ccccc3)oc2C)cc1
27) CCn1c(-c2ccccc2)c[nH]c1=S
28) O=C(O)CCn1c(C(=O)O)cc2sccc21
29) O=C(OCC(=O)c1c[nH]c2ccccc12)c1ccc(-n2cnnn2)cc1
30) C(=N\c1cc(-c2ccccc2)nn1-c1ccccc1)/c1ccccc1
31) O=C(Nc1cccc(-c2nc3ccccc3[nH]2)c1)C1CC(=O)N(Cc2ccco2)C1 (stereo unspecified)
32) CN1CCC(NC(=O)c2ccncc2)CC1
assay / entry	25	26	27	28	29	30	31	32
Mtb MbtI inh	1	-4	52	14	-8	nt	106	-5
MenB inh	-17	-4	-23	-20	-14	-29	-18	-4
Polio RdRp inh	102	110	99	103	105	105	107	101
Polio RdRp inh intensity	107	116	107	103	107	100	115	100

33) CC(C)C(C(=O)NN1C(=O)/C(=C/c2ccccn2)N=C1c1ccccc1)c1ccc(Cl)cc1 (stereo unspecified)
34) O=C(O)CC12CSc3[nH]c(=O)sc3C1c1ccccc1OC2=O (stereo unspecified)
35) c1csc(-c2nc3nonc3c3nc4ccccc4n23)c1
36) COC(=O)c1cccc(NC(=O)COc2ccccc2)c1
37) Cc1cc2c(c(C)c1Cl)CN(Cc1ccc3c(c1)OCO3)CO2
38) COCC(C)NC(=O)c1ccco1 (stereo unspecified)
39) O=C(NC1CCCC1)c1c(O)c2cccc3c2n(c1=O)CC3
40) O=C(O)c1c[nH]c2ccc(S(=O)(=O)N3CCCC3)cc2c1=O
assay / entry	33	34	35	36	37	38	39	40
Mtb MbtI inh	nt	-13	-2	-2	-6	nt	nt	-22
MenB inh	-19	-24	2	2	-21	-15	1	0
Polio RdRp inh	47	94	101	103	102	110	103	102
Polio RdRp inh intensity	245	90	110	105	99	110	108	108

41) COC(=O)c1ccc(-c2nc(O)c3c4ccccc4c(=O)[nH]n23)cc1
42) CC(C)(C)C(=O)NC(=S)NC1CCSC1=O (stereo unspecified)
43) Cc1ccc(NC(=O)N2CCCn3c(SCc4ccc(F)cc4)nnc32)cc1
44) CC(C)(C)C(=O)Nc1cc(NC(=O)C(C)(C)C)cc(C(=O)Nc2ccc(Oc3ccccc3)cc2)c1
45) CCCC1=Nc2cc(C(=O)NC3CCCC3)ccc2Sc2ccccc21
46) CC1(C)NC(=S)N(c2ccccc2)N1
47) N#Cc1cc2cc3c(cc2nc1SCC(=O)NC1CCCCC1)OCCO3
48) COc1cccc(C(=O)c2sc(NC(C)C)nc2N)c1
assay / entry	41	42	43	44	45	46	47	48
Mtb MbtI inh	10	-8	-4	nt	-3	7&14	6	-14
MenB inh	-19	9	-12	-27	-13	-20&1	-2	-48
Polio RdRp inh	45	102	102	100	104	116&103	99	104
Polio RdRp inh intensity	242	102	98	99	106	106&104	99	104

49) Cc1cc2cccc(C)c2nc1SCC(=O)O
50) O=C(NCCCN1CCOCC1)c1cc2c(s1)CCC2
51) Cc1cc(O)cc(=O)n1Cc1cccnc1
52) CC1Cc2ccccc2N1C(=O)C1CCCCN1S(=O)(=O)c1ccc(Cl)cc1 (stereo unspecified)
53) CCCc1cc(=O)[nH]c(SCc2ccc(C#N)cc2)n1
54) CCCCN1C(=O)S/C(=C\c2cc(C)n(C)c2C)C1=O
55) OCCNCCOc1ccc(I)cc1
56) COC(=O)c1sc(-c2ccc(C(C)(C)C)cc2)cc1NC(=O)COCC(=O)O
assay / entry	49	50	51	52	53	54	55	56
Mtb MbtI inh	5	12	-1	-14	-4	-2	5	102
MenB inh	-5	nt	-101	nt	-10	-51	-23	-11
Polio RdRp inh	102	102	101	101	104	99	100	99
Polio RdRp inh intensity	102	99	109	105	102	97	106	104

57) O=C(CCn1c(=O)sc2ccccc21)NCc1cccs1
58) COC(=O)C1=C(Nc2ccccc2NC(=O)CCCC(=O)O)CSC1
59) O=C(C1CCN(S(=O)(=O)c2ccccc2)CC1)N1CCCCC1
60) C=C1OC(C)(C)c2ccccc21
61) COC(=O)c1ccc(/C=C2/NC(=O)NC2=O)cc1
62) Cc1cnc(C(=O)Nc2ccc(S(=O)(=O)NC3=NCCCCC3)cc2)cn1
63) CNS(=O)(=O)c1cccc(S(=O)(=O)c2cccc(S(=O)(=O)NC)c2)c1
64) O=C(c1cc(=O)[nH]c2ccccc12)N1CCCc2ccccc21
assay / entry	57	58	59	60	61	62	63	64
Mtb MbtI inh	1	2	-3	6	20	10	8	-2
MenB inh	-5	-6	-56	-21	12	-14	-20	-5
Polio RdRp inh	103	99	102	99	100	103	99	nt
Polio RdRp inh intensity	104	102	101	101	102	110	97	nt

65) Cc1ccc(N(C(=O)C2CCCO2)C2C=CS(=O)(=O)C2)cc1Cl (stereo unspecified)
66) Cc1ccn2cc(CSC(=S)N3CCOCC3)nc2c1
67) CCCN1CC23C=CC(O2)C(C(=O)O)C3C1=O (stereo unspecified)
68) CCOC(=O)Cc1csc(NC(=O)/C=C/c2cccs2)n1
69) C/C(=N\N1C(=O)c2ccccc2C1=O)c1ccccc1O
70) C(=N\c1nncs1)/Nc1nncs1
71) CCOC(=O)c1cncn1C(C)c1ccccc1 (stereo unspecified)
72) COC(=O)C1CCN(S(=O)(=O)c2ccccc2)CC1
assay / entry	65	66	67	68	69	70	71	72
Mtb MbtI inh	-15	20	nt	16	6	13	2&6	nt
MenB inh	-5	-45	5	-2	11	20	12&9	-20
Polio RdRp inh	101	101	99	104	100	101	102&99	101
Polio RdRp inh intensity	106	109	100	105	103	99	103&97	99

73) O=C(O)c1cncn1-c1ccc(F)cc1
74) c1ccc2c(CCNC3=NCCC3)c[nH]c2c1
75) Cc1ccc2c(cnn2C(=O)CCC(=O)O)c1
76) CCCN(CCC)C(=O)CSc1nc2ccsc2c(=O)n1Cc1ccccc1Cl
77) N#Cc1ccccc1OCc1cc(-c2ccccc2)on1
78) CCn1c(Cc2ccccc2)nnc1SCC(=O)NC(=O)NCc1ccccc1
79) COc1ccc(C2CC(=O)C(C=NCC(C)C)=C(O)C2)cc1 (stereo unspecified)
80) O=C(Nc1c(S(=O)(=O)c2ccccc2)c2nc3ccccc3nc2n1C1CCCCC1)c1ccco1
assay / entry	73	74	75	76	77	78	79	80
Mtb MbtI inh	-9	-6	8	8	2	-5	4	25
MenB inh	9	-1	-15	-10	-3	-1	-3	-31
Polio RdRp inh	103	101	102	102	104	99	104	108
Polio RdRp inh intensity	105	102	101	99	113	95	102	106

81) O=C(COc1cccc2ccccc12)Nc1ccc(CN2CCOCC2)cc1
82) CN1CCN(CC(=O)N2CCCC2=O)CC1
83) COc1ccc(NC(=O)c2ccc(Cn3cc(Cl)cn3)cc2)cc1
84) CN1CCN(C(=O)/C=C/c2ccccc2)CC1
85) CC(=O)n1c(/C=C2\C=c3ccccc3=NC2=O)c(O)[nH]c1=S
86) COc1ccc(CCNC(=O)CN2CCCc3ccccc32)cc1OC
87) O=C(O)CCn1cc(/C=N\NC(=O)c2ccncc2)c(-c2ccccc2)n1
88) CSc1nc(NC(C)C)nc(N(C)C(N)=O)n1
assay / entry	81	82	83	84	85	86	87	88
Mtb MbtI inh	nt	-7	nt	6	-7	-9	19	16
MenB inh	-10	-15	-27	7	-26	-9	-7	21
Polio RdRp inh	105	101	109	101	81	107	101	102
Polio RdRp inh intensity	111	98	109	101	144	100	104	102

89) CC1CN(C(=O)Cc2ccc(-c3ccccc3)cc2)CC(C)O1 (stereo unspecified)
90) S=C(NCC1CCCO1)N/N=C1\C2CN3CCN(C2)CC1(Cc1ccccc1)C3 (stereo unspecified)
91) O=C(CCc1ccccc1)c1ccc2c(c1)OCCCO2
92) CCOc1ccc(OCC)c(NC(=O)CNS(=O)(=O)c2cccs2)c1
93) COc1cccc(CNCCc2c[nH]c3ccccc23)c1
94) CC1CCN(S(=O)(=O)c2ccc(S(=O)(=O)NCc3ccccc3)cc2)CC1
95) CCC(C)NC(=O)C1c2ccccc2C(=O)N(CCOC)C1c1cccs1 (stereo unspecified)
96) CCc1ccc(Nc2ncnc3c2nc2n3CCCCC2)cc1
assay / entry	89	90	91	92	93	94	95	96
Mtb MbtI inh	-8	-3	nt	-3	-2	-14	-3	-194
MenB inh	-6	2	-12	1	-1	-33	-29	-4
Polio RdRp inh	99	100	102	101	101	101	103	99
Polio RdRp inh intensity	102	101	97	103	105	99	98	101

97) Cc1c(Cl)cccc1NC(=O)NCc1cccnc1
98) COCCNC(=O)c1ccc2c(c1)ncn2-c1ccccc1OC
99) CN1C=CC=C/C1=C1\N=C(c2ccccc2)OC1=O
100) O=C1OCC(c2cccs2)=C1c1cccs1
101) CCn1c(SC)nnc1C1CCCN1CC(=O)NCc1cccs1 (stereo unspecified)
102) O=C(c1cccc(F)c1)N1CCN(C(=O)c2cnn3cc(Br)cnc23)CC1
103) O=C1Nc2ccccc2Oc2ncccc21
104) O=C(/C=C/c1cccs1)C(C(=O)c1ccccc1)=C1SCCCCS1
105) Cc1cc(NC(=O)c2ccccc2)n(-c2nc3ccccc3[nH]2)n1
106) Cc1noc(C)c1Cc1ccc(C(=O)O)o1
assay / entry	97	98	99	100	101	102	103	104	105	106
Mtb MbtI inh	-31	-2	98	-17	-7	-15	-1	nt	85	-1
MenB inh	-20	-11	-6	-22	-19	-2	-14	-126	-2	-12
Polio RdRp inh	101	97	97	108	102	101	103	103	101	103
Polio RdRp inh intensity	103	102	94	105	100	98	101	108	102	105
